PV pol inh – poliovirus RdRp elongation inhibitors, primary screen, biochemical, fluorescence polarization, total intensity; Genome polyprotein (Poliovirus type 1 (strain Mahoney)), P03300; poliovirus polymerase elongation; hits give low values; % elongation, % (compound at 16.7 µg/mL); 150,000 tested, 0.66% active; in the data active = % elongation below about 90%; also: some results filed as inactive read as strong as hits
Target sequence (P03300 1749-2209 limits assumed): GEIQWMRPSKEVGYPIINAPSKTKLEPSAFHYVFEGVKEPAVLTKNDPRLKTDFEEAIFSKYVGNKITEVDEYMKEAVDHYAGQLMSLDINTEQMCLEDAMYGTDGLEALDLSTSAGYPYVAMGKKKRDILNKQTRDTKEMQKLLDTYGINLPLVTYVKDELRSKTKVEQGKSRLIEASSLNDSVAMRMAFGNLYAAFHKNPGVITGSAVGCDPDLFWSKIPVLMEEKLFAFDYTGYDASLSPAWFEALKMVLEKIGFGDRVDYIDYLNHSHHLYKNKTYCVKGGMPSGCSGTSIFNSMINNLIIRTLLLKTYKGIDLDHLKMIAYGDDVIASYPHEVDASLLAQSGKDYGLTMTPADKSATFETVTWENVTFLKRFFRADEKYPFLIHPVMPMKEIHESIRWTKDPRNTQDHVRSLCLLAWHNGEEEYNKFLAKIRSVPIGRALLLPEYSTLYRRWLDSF
PV pol inh intensity – recorded beside PV pol inh, whose call it bears; % elongation; measured here: total intensity read-out; formula for this scale not given here;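 total fluorescence in place of polarization; lower means less elongation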
* = called active by the depositor. This is a subset. The share of hits here may be higher or lower than overall.

SMILES | PV pol inh | PV pol inh intensity
CN(C1CCCCC1)S(=O)(=O)c1ccc2c(c1)c(=O)c(C(=O)N1CCN(c3ccccc3F)CC1)cn2C | 106 | 109
O=C(Nc1nc2n(n1)C(c1ccccc1)C=C(c1ccccc1)N2)c1ccc(Cl)c([N+](=O)[O-])c1 (stereo not given) | 112 | 116
Cc1ccc(C)c(CN2CCCN(Cc3cc(C)ccc3C)S2(=O)=O)c1 | 103 | 108
CN(Cc1ccccc1)Cc1c(O)ccc2c(=O)c(-c3ccccc3)c(C(F)(F)F)oc12 | 103 | 97
CCc1ccc(C2=NN(CCC(=O)NCCc3ccccc3)C(=O)CC2)cc1 | 108 | 111
CCCS(=O)(=O)N1CC(=O)N(c2ccc(C)cc2C)C(C)(C(=O)NC2CCCCCC2)C1 (stereo not given) | 101 | 108
O=C(Cn1ncc2c([nH]c3ccccc32)c1=O)Nc1cccc(C(F)(F)F)c1 | 109 | 115
COc1ccc(N2CCN(C(=O)CSc3nc4ccccc4nc3Cc3ccc(Cl)cc3)CC2)cc1 | 103 | 106
Cc1ccc(CSC2=Nc3ccccc3C3=NC(CCC(=O)NCCc4ccccc4)C(=O)N23)cc1 (stereo not given) | 105 | 107
Cc1cc(C)cc(N2CC(c3nc(-c4ccccc4C)no3)CC2=O)c1 (stereo not given) | 101 | 109
O=C(CCCn1c(=O)c2sccc2n(Cc2c(F)cccc2Cl)c1=O)NCc1ccccc1 | 113 | 110
COc1cccc(C(=O)NCC2OCCc3ccccc32)c1 (stereo not given) | 104 | 106
CCN1CCN(CCCNC(=O)c2ccc3nc(Cc4ccccc4)oc3c2)CC1 | 111 | 115
Cc1ccc(NC(=O)Cn2c(=O)oc3cc(S(=O)(=O)N4CCC(C)CC4)ccc32)cc1Cl | 100 | 94
O=C(NCCc1ccccc1Cl)c1ccc2c(c1)nc1n2CCOC1 | 113 | 112
Cc1ccc(-c2c(C(=O)NCCc3ccc(Cl)cc3)oc(=O)c3ccccc23)cc1 | 103 | 103
O=C(Nc1ccccc1C(=O)OCc1cc(=O)n2c3c(sc2n1)CCCC3)c1cccc(Cl)c1 | 105 | 103
COc1ccc2oc(=O)cc(CN3CCN(C(=O)c4ccccc4Br)CC3)c2c1 | 106 | 111
COc1cccc(NC(=O)C2CCCN(S(=O)(=O)c3c(C)[nH]c(=O)[nH]c3=O)C2)c1 (stereo not given) | 103 | 102
CCN(C(=O)CCS(=O)(=O)c1cccc2nsnc12)c1cccc(C)c1 | 103 | 104
Cc1nc2c(c(C)c1CCC(=O)Nc1cccc(C(F)(F)F)c1)c(=O)n(C)c(=O)n2C | 106 | 112
CCCN(C(=O)c1cc2c(s1)-c1c(C)cccc1OC2)c1ccc(OCC)cc1 | 106 | 111
CCC(CC)C(=O)Nc1ccccc1SCc1cc(=O)c2cccc(C)c2[nH]1 | 98 | 101
O=C(NCCSc1c(-c2ccc(F)cc2)[nH]c2ccccc12)c1ccc(S(=O)(=O)N2CCOCC2)cc1 | 108 | 108
CCC(C)NC(=O)c1sc2nc(C)c(C(=O)Nc3ccc(C)cc3C)c(-c3ccccc3Cl)c2c1N (stereo not given) | 105 | 110
COc1ccc(C2=NS(=O)(=O)N(C)C(C(=O)NC(C)c3ccccc3)=C2)cc1 (stereo not given) | 117 | 116
Cc1ccc(C2CCN(C(=O)c3cnn(-c4ccc(C)c(C)c4)c3C3CCN(C(=O)OC(C)(C)C)CC3)C2)cc1 (stereo not given) | 105 | 102
COc1ccccc1CNc1ncnc2c1nc1n2CCCC1 | 105 | 104
CC1CCC(N2CC(=O)N(C3CCCC3)C(c3ccc(Cl)cc3)C2=O)CC1 (stereo not given) | 112 | 113
O=C(Nc1ccc2nc(SCCOc3ccccc3)sc2c1)c1ccc2c(c1)OCO2 | 103 | 112
CC(=O)N1CCc2cc(S(=O)(=O)NC(C(=O)Nc3ccc(C)cc3C)C(C)C)ccc21 (stereo not given) | 103 | 102
O=C(CSc1ncc(CO)n1Cc1ccc(Cl)cc1)NCc1ccc(F)cc1 | 105 | 109
CCOc1ccc(CCNC(=O)c2cn(C)c3ccc(S(=O)(=O)N4CCCCC4)cc3c2=O)cc1OCC | 102 | 98
CCC1CCCCN1Cc1cn2c(-c3ccc(Br)cc3)nnc2s1 (stereo not given) | 107 | 111
O=C(NCc1ccccc1F)c1sc2ncccc2c1-n1cccc1 | 112 | 111
Cc1oc2ncn(C)c(=O)c2c1C(=O)N1CCN(c2ccccc2F)CC1 | 105 | 104
COC(=O)C1CCN(CC(=O)Nc2cc(C)c3c(=O)oc4ccccc4c3n2)CC1 | 110 | 115
Cc1ccc(-c2cc(C(F)(F)F)n3nc(-c4cccc(Br)c4)cc3n2)cc1 | 106 | 105
Cc1ccc(Cl)cc1NC(=O)Cn1c(=O)n(C(C)C)c(=O)c2oc3ccccc3c21 | 103 | 106
Cc1ccccc1NC(=O)CCC(=O)N1CCSc2ccccc21 | 106 | 111
CCOC(=O)c1c(C)[nH]c(CCC(=O)NCc2ccc(F)cc2)c1C | 111 | 115
Clc1cccc(-c2noc3ncnc(NC4CCCCC4)c23)c1 | 100 | 104
O=C(OCc1ccco1)c1ccc2c(c1)N(Cc1cccc(F)c1)C(=O)c1ccccc1S2 | 106 | 113
Cc1cc2c(cc1S(=O)(=O)N(C)CC(=O)Nc1cccc(C#N)c1)OCC(=O)N2 | 112 | 115
CN(C)C1(CNC(=O)COc2ccc([N+](=O)[O-])cc2)CCCCC1 | 102 | 95
Cc1ccc(C)c(N2CCN(C(=O)Cn3ncc4c(=O)oc5ccccc5c43)CC2)c1 | 106 | 108
O=C(NCc1ccccc1)c1ccc(Cn2c(=O)c3cccn3c3cccnc32)cc1 | 108 | 106
O=C(NC1CC(=O)N(c2cccc(F)c2)C1)c1cc2ccccc2o1 (stereo not given) | 109 | 112
Cc1ccc(CN2CCCN(Cc3c(C)cc(C)cc3C)S2(=O)=O)cc1 | 108 | 105
CCOc1ccc(CNS(=O)(=O)c2ccc(-c3coc(C)n3)cc2)cc1 | 101 | 99
COc1ccc(NC(=O)NC2COc3ccccc3C2)cc1Cl (stereo not given) | 105 | 112
Cc1ccc(C(=O)NCCc2ccc(Cl)cc2)cc1-n1c(C)nc2cccnc21 | 117 | 115
CC(C)NC(=O)C1CCN(C(=O)c2cnn(-c3ccccc3)c2-n2cccc2)CC1 | 108 | 109
CCOc1ccc(NC(=O)c2ccc(F)c(S(=O)(=O)NCc3ccc4c(c3)OCO4)c2)cc1 | 111 | 111
CCOc1ccc(-c2cc(CCCC(=O)NCCc3ccc(SC)cc3)no2)cc1 | 107 | 111
O=C(Nc1cc2ccc(O)cc2oc1=O)c1ccccc1 | 103 | 109
O=C(CSc1nc(-c2ccccc2)[nH]c1-c1ccccc1)Nc1ccc2c(c1)OCO2 | 111 | 104
COCCNC(=O)CSc1nc2cc3c(cc2c(=O)n1CCCC(=O)NCc1ccc2c(c1)OCO2)OCO3 | 110 | 114
CCS(=O)(=O)N1CC(=O)N(c2cccc(C)c2C)C(C)(C(=O)NC2CCCCC2)C1 (stereo not given) | 111 | 110
COc1ccc(CNC(=O)CS(=O)(=O)c2cccc3nsnc23)cc1 | 111 | 111

Shown with tabs: 15 of the compounds above
SMILES	PV pol inh	PV pol inh intensity
Cc1ccc(C)c(N2CCN(C(=O)Cn3ncc4c(=O)oc5ccccc5c43)CC2)c1	106	108
O=C(NCc1ccccc1)c1ccc(Cn2c(=O)c3cccn3c3cccnc32)cc1	108	106
O=C(NC1CC(=O)N(c2cccc(F)c2)C1)c1cc2ccccc2o1 (stereo not given)	109	112
Cc1ccc(CN2CCCN(Cc3c(C)cc(C)cc3C)S2(=O)=O)cc1	108	105
CCOc1ccc(CNS(=O)(=O)c2ccc(-c3coc(C)n3)cc2)cc1	101	99
COc1ccc(NC(=O)NC2COc3ccccc3C2)cc1Cl (stereo not given)	105	112
Cc1ccc(C(=O)NCCc2ccc(Cl)cc2)cc1-n1c(C)nc2cccnc21	117	115
CC(C)NC(=O)C1CCN(C(=O)c2cnn(-c3ccccc3)c2-n2cccc2)CC1	108	109
CCOc1ccc(NC(=O)c2ccc(F)c(S(=O)(=O)NCc3ccc4c(c3)OCO4)c2)cc1	111	111
CCOc1ccc(-c2cc(CCCC(=O)NCCc3ccc(SC)cc3)no2)cc1	107	111
O=C(Nc1cc2ccc(O)cc2oc1=O)c1ccccc1	103	109
O=C(CSc1nc(-c2ccccc2)[nH]c1-c1ccccc1)Nc1ccc2c(c1)OCO2	111	104
COCCNC(=O)CSc1nc2cc3c(cc2c(=O)n1CCCC(=O)NCc1ccc2c(c1)OCO2)OCO3	110	114
CCS(=O)(=O)N1CC(=O)N(c2cccc(C)c2C)C(C)(C(=O)NC2CCCCC2)C1 (stereo not given)	111	110
COc1ccc(CNC(=O)CS(=O)(=O)c2cccc3nsnc23)cc1	111	111

New compounds follow:
SMILES | PV pol inh | PV pol inh intensity
CCn1c(=O)n(-c2ccc(F)c(Cl)c2)c(=O)c2sc3ccccc3c21 | 107 | 107
Cc1ccc(Cl)cc1-n1ncc2c(N3CCC(C)CC3)ncnc21 | 106 | 100
Cc1oc(-c2ccccc2Cl)nc1CSc1nc2ncccc2[nH]1 | 112 | 116
Cc1cccc(-c2nc(S(=O)(=O)c3ccc(F)cc3)c(N3CCN(c4ccccc4)CC3)o2)c1 | 105 | 103
CCOc1ccc(-c2cc(C)n3nc(C(=O)Nc4ccc(C)c(C)c4)cc3n2)cc1 | 102 | 103
COc1ccc(OC)c(S(=O)(=O)NCCc2csc3nc(-c4ccccc4)nn23)c1 | 110 | 111
Cc1ccc(-n2ncc3c(Nc4cccc(C)c4C)ncnc32)cc1 | 109 | 111
COCCCNc1nc(NCc2cccc(Cl)c2)c2cnn(C)c2n1 | 106 | 108
CCCN(Cc1cccs1)C(=O)Nc1ccc(F)c(Cl)c1 | 107 | 107
O=C(Nc1cc(F)ccc1F)C1CCN(c2nc3ccccc3n3cccc23)CC1 | 106 | 107
CCc1nn(CC(=O)Nc2ccc(NC(C)=O)cc2)c(=O)c2cc3sccc3n12 | 104 | 107
Cc1ccc(Cl)cc1N1CCN(C(=O)COCc2cc(-c3ccc4c(c3)OCO4)on2)CC1 | 106 | 110
O=C(Cn1ncc2c(=O)oc3ccccc3c21)Nc1cc(F)ccc1F | 100 | 102
Cc1c(Cl)cccc1-n1ncc(C(=O)NCCN2CCN(C)CC2)c1C1CCN(C(=O)OC(C)(C)C)CC1 | 109 | 116
Cc1ccc(S(=O)(=O)c2nc(-c3cccc(Br)c3)oc2N2CCCCCC2)cc1 | 103 | 108
Cc1ccc(OCC(=O)Nc2cccc(C(=O)OCc3cc(=O)n4nc(C)sc4n3)c2)cc1 | 107 | 110
Cc1cc2c(cc3c(SCc4ccc(Cl)cc4)nncn32)o1 | 111 | 111
Cc1ccc(C(=O)NCc2nnnn2-c2ccc(C)c(C)c2)cc1 | 102 | 106
Cc1oc(-c2ccccc2)nc1CNC(=O)Nc1ccccc1 | 106 | 106
CCOCCCn1c(SCC(=O)Nc2ccc(CC)cc2)nc2ccccc2c1=O | 108 | 117

Two compounds drawn at random from those above, as already listed:
SMILES | PV pol inh | PV pol inh intensity
COc1ccc(OC)c(S(=O)(=O)NCCc2csc3nc(-c4ccccc4)nn23)c1 | 110 | 111
CCOc1ccc(-c2cc(C)n3nc(C(=O)Nc4ccc(C)c(C)c4)cc3n2)cc1 | 102 | 103

Carrying on:
SMILES | PV pol inh | PV pol inh intensity
COc1ccc(C(=O)N(Cc2ccco2)Cc2ccco2)cc1 | 111 | 114
Cc1cccc(NC(=O)CSc2nc3ccc(NC(=O)c4ccccc4)cc3s2)c1 | 108 | 116
Cc1nn(CC(=O)NCc2cccc(Br)c2)c(=O)c2c1sc1ccccc12 | 127 | 146
Cc1ccc(OCC(=O)N(Cc2sccc2C)C2CCS(=O)(=O)C2)cc1 (stereo not given) | 123 | 117
COc1cc2oc(=O)c(CC(=O)N3CCCCC3)c(C)c2cc1OC | 103 | 105
CC(=O)c1ccc(NC(=O)CN(C)S(=O)(=O)c2cnc[nH]2)cc1 | 104 | 106
O=C(Nc1ccc(F)c(Cl)c1)N1CCN(C(=O)c2nsc3ccccc23)CC1 | 108 | 110
COc1ccc(-n2c(SCC(=O)Nc3cc(C)cc(C)c3)nc3c(oc4ccccc43)c2=O)cc1 | 106 | 109
CCOC(=O)C1CCN(c2ncnc3c2c(-c2ccccc2)cn3-c2ccc(C)c(Cl)c2)CC1 | 108 | 112
Cc1cccc(C(=O)N2CCc3cc(CNS(=O)(=O)c4cccs4)ccc32)c1 | 105 | 106
COc1ccc(-c2nnn3c2nc(NCc2ccc(C)cc2)c2ccccc23)cc1 | 102 | 104
Cc1ccc(NC(=O)c2c(C)oc3ccc(O)c(CN4CCOCC4)c23)cc1 | 105 | 111
Cc1ccccc1NC(=O)c1sc2nc(-c3ccncc3)ccc2c1N | 123 | 171
COC(=O)c1ccc(NC(=O)C2(S(=O)(=O)c3ccc(C)cc3)CC2)cc1 | 108 | 106
CCC1CN(C(=O)Nc2cc(C)ccc2OC)c2cc(Cl)ccc2O1 (stereo not given) | 107 | 109
CCOc1ccc(NC(=O)c2sc3nc(-c4ccc(OC)cc4)cn3c2C)cc1 | 107 | 112
CCc1ccc(S(=O)(=O)c2nnn3c2nc(N(C)Cc2ccccc2)c2cc(Cl)ccc23)cc1 | 103 | 104
COc1ccc(CNC(=O)Cc2ccc(NC(=O)N3CCCCc4ccccc43)cc2)cc1 | 104 | 107
Cc1cc(NC(=O)Cn2c(=O)oc3cc(S(=O)(=O)N4CCCC4)ccc32)ccc1Br | 104 | 101
COc1cc(OC)cc(C(=O)Nc2cc(-c3nc4ccccc4s3)ccc2OC)c1 | 102 | 105
CCN(C(=O)c1noc2c1COc1ccc(C)cc1-2)c1cccc(C)c1 | 103 | 105
COc1ccc(-c2noc(CSc3nnc(C)n3-c3ccc(C)cc3)n2)cc1 | 108 | 108
COc1ccccc1NC(=O)c1cc(S(=O)(=O)NCCC2=CCCCC2)ccc1F | 110 | 115
COc1cccc(-n2c(=O)c3c(C)c(C)sc3n(CC(=O)NCc3ccc(C)cc3)c2=O)c1 | 109 | 111
COc1ccc(N2CCN(CCCNC(=O)C3COc4ccc(OC)cc4C3)CC2)cc1 (stereo not given) | 102 | 100
COC(=O)c1cc2sc(C)cc2n1Cc1ccc(Br)cc1F | 112 | 113
COCCCNC(=O)C1CCN(Cc2cc3ccccc3n2Cc2ccccc2C)CC1 | 103 | 99
